Beta cell apopt: blocks beta cell apoptosis; 300,000 compounds, 0.8% hits; INS-1E cytokine-induced death, ATP luminescence, 48 h; percent of positive-control rescue, neutral wells zero; protection from apoptosis, % (no concentration beside the values);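 active = all replicates at 75% or more, or half of them and the mean; inconclusive = half reach 75% but not the mean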;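 note: 0% = cytokine-treated negative control wells and 100% = positive control rescue; higher means more ATP so stronger rescue from cytokine killing; wells of about 40 µL received 100 nL stock; the first replicate is given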
UCH37 DUB inh: inhibitors of human deubiquitinating enzyme UCH37; Q9Y5K5; 330,000 compounds, 0.33% hits; inhibition, % (concentration not given with the values); purified proteasome/UCH37, Ub-AMC cleavage fluorescence;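 active = mean of two replicates above 20%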;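 note: 0% = compound-free wells with enzyme and 100% = wells lacking proteasome; stock transfer was 100 nL into about 20 µL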
Target sequence (Q9Y5K5 whole entry, looked up): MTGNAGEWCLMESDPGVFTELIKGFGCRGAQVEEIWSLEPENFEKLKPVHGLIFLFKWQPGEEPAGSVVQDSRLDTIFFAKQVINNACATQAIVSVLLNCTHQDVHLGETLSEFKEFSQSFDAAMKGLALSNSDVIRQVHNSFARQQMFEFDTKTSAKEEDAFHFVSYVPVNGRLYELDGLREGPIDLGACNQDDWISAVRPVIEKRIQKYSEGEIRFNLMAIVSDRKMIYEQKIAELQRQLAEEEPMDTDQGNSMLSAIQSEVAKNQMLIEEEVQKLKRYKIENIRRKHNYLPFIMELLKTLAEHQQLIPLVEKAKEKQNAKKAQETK
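Material: human UCH37 enzyme supplied as purified proteasome complex / Amount: 0.15 nM proteasome as dispensed / Buffer or medium: pH 7.4 Tris-HCl (50 mM) with ovalbumin, ATP-MgCl2, DTT / Times: preincubation 30 min, reaction 25 min, room temperature / Technique: AMC fluorescence from Ub-AMC cleavage, excitation 355 nm, emission 460 nm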
RanGTP-Impb inh: inhibitors of RanGTP-importin-beta interaction, primary screen, biochemical, FRET, CFP-Ran, YFP-importin-beta, homogeneous; inhibition, % (no concentration beside the values); 300,000 compounds, 1.1% hits; AID 2216; cell-free CFP-Ran/YFP-importin-beta FRET ratio;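 active = most replicates above 15%; inconclusive = exactly half above 15%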;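 note: 0% = DMSO wells and 100% = Ran loaded with GDP instead of GTP; wells of about 40 µL received 100 nL stock; the first replicate is given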
B2AR ag: agonists of human beta-2 adrenergic receptor inducing internalization; P07550; Am2.2-beta2AR cells, FAP receptor internalization, flow cytometry; reference of the scale not given here; response, % (no concentration beside the values); 340,000 compounds, 0.43% hits; AID 504454;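 active = response above a set limit, near 3 SD of response in nonfluorescent compounds, cut at about 42% in these data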;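 note: stock transfer was 100 nL into about 11 µL; a reference agonist was the positive control; negative values mostly stem from fluorescent compounds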
Target sequence (P07550 whole entry, looked up): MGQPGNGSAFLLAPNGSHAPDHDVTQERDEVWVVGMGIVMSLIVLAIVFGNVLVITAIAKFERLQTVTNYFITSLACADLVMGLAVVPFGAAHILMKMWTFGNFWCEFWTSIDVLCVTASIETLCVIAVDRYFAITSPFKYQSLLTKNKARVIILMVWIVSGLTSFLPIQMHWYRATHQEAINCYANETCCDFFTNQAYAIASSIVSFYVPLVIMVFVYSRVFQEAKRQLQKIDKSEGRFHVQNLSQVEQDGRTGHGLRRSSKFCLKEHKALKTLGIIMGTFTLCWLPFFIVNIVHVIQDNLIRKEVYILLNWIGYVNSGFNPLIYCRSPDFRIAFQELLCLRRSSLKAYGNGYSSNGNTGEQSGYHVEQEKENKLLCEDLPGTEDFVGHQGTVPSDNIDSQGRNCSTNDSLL
T cruzi inh: blocks replication of Trypanosoma cruzi; T. cruzi beta-gal in NIH3T3, luminescence, 90 h; AID 1885; 300,000 compounds, 1.4% hits; inhibition, % (concentration not given with the values);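 active = mean inhibition across valid replicates above about 55%, limit read from the data; inconclusive = mean below that limit but half or more replicates reach it; inactive = mean below it, under half of replicates reach it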;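 note: signal also drops with host cell toxicity which is not excluded here; 0% = plate median of DMSO wells and 100% = zero luminescence signal; higher percent means less beta-gal luminescence so fewer parasites; stock transfer was 50 nL into about 50 µL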
Bfl-1 A1 inh: inhibitors of the anti-apoptotic protein A1, read as caspase activation | MEF A1-2A-BIM cells, Caspase-Glo 3/7 luminescence, 3 h; percent of clofoctol response, vehicle zero | caspase activation, % (test concentration not listed) | 330,000 compounds, 0.066% hits;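 active = over half of replicate activation scores above 10%, or exactly half above 10 with the replicate mean above 10; inconclusive = replicate mean below 10 yet half the replicates above 10; inactive = over half of replicates below 10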;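 note: wells of about 30 µL received 50 nL stock; many hits fall short of the cut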
LANA-H2A inh: blocks KSHV LANA binding to histone H2A/H2B | 320,000 compounds, 0.6% hits | inhibition, % (test concentration not listed) | cell-free LANA-H2A/H2B peptide, fluorescence polarization; in the data active = inhibition mostly above about 10%, no sharp cut-off; inactive = mostly below about 6.7%;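 note: stock transfer was 7.5 nL into about 10 µL; 0% = median of vehicle wells and 100% = median of positive control wells; one replicate is shown; the record names a cut of 25% in any replicate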
Calb FLC: C. albicans growth modulation with fluconazole. AID 1979. growth inhibition, % (test concentration not listed). 300,000 compounds, 0.57% hits. C. albicans CaCi-2 (fluconazole-resistant clinical isolate) + fluconazole, Alamar Blue growth, 48 h;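 active = most replicates above 75%; inconclusive = exactly half above 75%; inactive = most below 75%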;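 note: all wells also contain fluconazole at 8 µg/ml as a sub-toxic cotreatment; 0% = median of DMSO wells and 100% = median of geldanamycin control wells; wells of about 8 µL received 7.5 nL stock; the first replicate is given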
An asterisk follows results filed as active; u = inconclusive; x = not tested or not shown.

SMILES	Beta cell apopt	UCH37 DUB inh	RanGTP-Impb inh	B2AR ag	T cruzi inh	Bfl-1 A1 inh	LANA-H2A inh	Calb FLC
Cc1c(NS(=O)(=O)c2cc(C(=O)NCc3cccnc3)cc(Cl)c2Cl)c(=O)n(-c2ccccc2)n1C	-3.3	-1.1	1.3	0.3	3.5	0.0	7.9	-7.0
O=C(COc1ccccc1[N+](=O)[O-])Nc1ccc(N2CCN(C(=O)c3cccs3)CC2)cc1	9.7	1.4	3.2	25.6	24.8	0.6	0.8	-4.0
COc1ccc(OC)c(COC(=O)c2cccc(S(=O)(=O)N3CCCCC3)c2)c1	-1.6	1.0	x	-0.6	x	-0.6	-1.4	x
CC(C)CCNC(=O)C1CCC(CNc2c(N3CCCC3)c(=O)c2=O)CC1 (stereo not given)	-5.6	4.3	-1.2	-7.0	-3.4	-1.1	9.2	-1.3
CN1CCN(C(=O)CSc2nc3c(c(=O)n(C)c(=O)n3C)n2C)CC1	-0.4	4.6	4.2	1.1	0.7	0.5	2.8	14.2
CN(C(=O)COC(=O)c1cccc(S(=O)(=O)N2CCCCC2)c1)C1CCS(=O)(=O)C1 (stereo not given)	-6.7	-0.2	u	1.3	-6.8	0.3	0.1	-1.5
Nc1cc(=O)[nH]c(SCC(=O)Nc2cccc(Cl)c2Cl)n1	-1.1	-1.0	1.5	-5.8	-7.2	0.2	6.9	11.5
Cc1nc(NC(=O)c2ccc(Cl)cc2)sc1Cc1ccc2c(c1)OCO2	22.7	-173.5	-0.1	28.4	-16.7	0.4	3.1	0.1
CCOc1ccc(OCCCC(=O)Nc2nc3ccccc3[nH]2)cc1	-14.7	-0.4	0.5	-1.3	-23.6	0.4	1.4	-11.5
COc1ccccc1N1CCN(C(=O)c2ccc(CN3CCc4ccccc4C3)cc2)CC1	-7.7	2.5	u	3.4	6.7	-0.1	-1.7	-4.4
Cc1ccc(C(=O)NCC(=O)OCCOc2cccc(Cl)c2)cc1	-2.7	4.7	-0.6	1.9	-12.6	1.1	0.0	-6.2
COc1ccc(N2CCN(C(=O)[C@@H]3CCCN3C3=NS(=O)(=O)c4ccccc43)CC2)cc1	-1.8	0.3	x	-7.1	x	-0.4	11.1	x
CCC(=O)Nc1ccc(/C(C)=N/NC(=O)c2c(Br)c(C)nn2C)cc1	-10.2	x	0.7	-10.4	-0.7	0.1	8.4	8.2
CCSc1cc(C)nc2c(-c3ccc(Cl)cc3)c(C)nn12	0.4	-78.4	3.4	-1.9	0.6	-0.2	0.6	23.2
O=C(CSc1nncs1)N1CCN(S(=O)(=O)c2ccccc2)CC1	0.5	3.7	3.0	-10.9	8.2	-0.3	-7.6	8.9
CCOC(=O)C(=O)Nc1ccc(OCc2ccccc2)cc1	-1.5	0.9	u	-3.2	-19.7	-0.8	-8.1	7.3
CCCc1cc(=O)[nH]c(SCC(=O)Nc2ccc(OC(F)F)cc2)n1	-1.8	2.0	-1.9	16.0	0.2	0.9	4.8	10.0
COc1ccc(F)cc1S(=O)(=O)Nc1cc2c3c(c1)CC(=O)N3CCC2	x	-1.1	3.1	5.7	-5.4	0.2	2.9	7.5
Cc1ccc(S(=O)(=O)Nc2cccc(CP(=O)(c3ccccc3)c3ccccc3)c2)cc1	-4.1	5.3	7.7	-1.6	-3.4	-0.2	-7.8	-1.0
O=S(=O)(c1ccc2ncn(O)c2c1)N1CCOCC1	-0.5	-0.2	-4.4	4.2	-15.3	-0.5	4.4	-8.8
COc1ccccc1OCC(=O)NC1CCCCCC1	0.3	0.8	3.7	-2.3	10.5	-0.2	-0.8	-9.4
Cc1[nH]c2ccccc2c1C(C#N)(C#N)C1C(=O)c2ccccc2C1=O	-28.3	-2.9	6.4	21.2	25.8	1.4	0.8	9.4
CN(C)S(=O)(=O)c1cccc(NC(=O)c2cc(=O)[nH]c(=O)[nH]2)c1	0.6	2.0	2.4	-4.2	-7.9	0.5	2.6	0.7
O=C(NCCSc1ccccc1)c1ccccc1	3.0	0.5	-0.2	-3.5	-4.3	-8.5	-1.2	-1.0
O=C(OCCNc1nc(-c2ccccc2)nc2ccccc12)c1cccnc1	0.5	-0.1	-3.7	0.0	47.0	0.2	-1.4	53.1
CCN(CC)c1ccc(NC(=O)c2cccc(C)c2OC)c(C)c1	4.7	0.5	x	0.7	-7.3	0.0	-10.9	-2.3
NC(=O)C1CCN(C(=O)CCSc2ccccc2)CC1	-7.3	-1.6	0.1	6.8	6.8	0.0	1.7	-0.3
NC(=O)C1CCN(c2cc(Cl)ccc2[N+](=O)[O-])CC1	-2.5	-1.4	-0.5	-6.8	-20.0	-0.1	7.0	1.3
CC(C)n1c(CNC(=O)c2ccccc2)nc2ccccc21	-2.0	2.9	1.7	-9.6	-9.3	-0.4	2.7	26.9
Cc1snc(S(=O)(=O)/C(C#N)=N\Nc2ccccc2)c1C#N	-6.9	x	-5.8	5.6	2.4	1.8	0.6	-18.4
CCCCCC1CC(CC(=O)NC(=S)Nc2ccc([N+](=O)[O-])cc2)C(=O)O1 (stereo not given)	-2.0	0.3	6.5	16.7	-6.3	-0.1	2.2	9.0
Cc1ccc(S(=O)(=O)N(Cc2ccccc2)c2ccccc2C(=O)NCc2ccco2)cc1	x	-0.3	-0.3	-3.5	41.1	-0.7	-2.9	u
COc1ccc(Cn2c(CCC(=O)Nc3ccc(C)c(C)c3)nc3cccnc32)cc1	0.4	2.4	-20.6	-2.9	5.8	-0.1	1.1	8.9
COC(=O)c1c(NC(=O)COC(=O)CCS(=O)(=O)c2ccc(C)cc2)sc(C)c1C	-3.1	0.4	2.4	-4.5	7.3	0.4	6.3	6.9
CC1=NN(c2ccccc2)C(=O)/C1=C/c1cc(C)n(C2CC2)c1C	-4.7	1.9	-3.3	0.1	13.3	-0.1	4.3	-10.9
CN(C)S(=O)(=O)c1ccc(NC(=O)COC(=O)C2CC3CCCC(C2)C3=O)cc1 (stereo not given)	-5.0	1.9	3.0	-5.8	-8.5	0.2	1.9	-8.1
O=C(Nc1ccccc1)C1CCN(C(=O)c2ccc([N+](=O)[O-])cc2)CC1	0.9	5.6	0.6	-1.6	-3.6	0.0	-4.5	27.4
O=C(CCl)N1N=C(c2cccs2)CC1c1ccco1 (stereo not given)	-38.1	-1.8	2.1	11.6	83.0*	1.7	-0.4	2.6
Cc1ccc(NC(=O)CN2C(=O)NC(C)(C3CC3)C2=O)c([N+](=O)[O-])c1 (stereo not given)	-7.4	2.0	x	7.0	x	0.6	-4.9	x
CCOc1ccc(S(=O)(=O)n2cc(-c3ccccc3)c(N)n2)cc1	-1.8	5.8	u	0.1	1.8	-0.1	-0.1	19.8
COc1ccc(Cc2noc(CN3CCCN(C4Cc5ccccc5C4)CC3)n2)cc1OC	3.0	6.8	-0.2	-4.8	60.0*	-1.2	3.9	-37.3
C=CCNC(=O)COC(=O)CNC(=O)c1cc(Cl)cc([N+](=O)[O-])c1	-8.1	0.8	-1.9	2.5	7.4	-0.1	-3.2	-12.0
O=C1CC(c2ccccc2)Sc2nc(-c3ccccc3)c(-c3ccccc3)n21 (stereo not given)	-14.7	3.4	1.3	-2.0	-9.0	-0.3	-7.3	17.6
O=C(Cn1c(=O)sc2ccccc21)N1CCOCC1	-14.0	0.6	4.1	6.5	-1.5	0.8	3.9	-0.6
COc1ccc(OC)c(NC(=O)CCN2CCN(c3ccccc3)CC2)c1	-6.4	0.3	0.3	-1.7	1.2	-0.1	-4.9	7.3
CCOc1cc(/C=C/C(=O)c2ccc(O)cc2)ccc1OCC(=O)N(C)C	-10.4	4.6	-3.7	14.9	0.2	0.3	0.1	-10.2
CC(NS(=O)(=O)/C=C/c1ccccc1)c1ccccc1 (stereo not given)	-3.2	2.6	-0.6	-9.1	-1.2	0.5	-5.5	-23.9
CCOc1ccc(NC(=O)NNC(=O)COc2ccc3ccccc3c2)cc1	-5.6	2.5	0.6	-2.2	-5.0	0.9	7.7	-6.7
CC(OC(=O)CCc1nc2ccccc2[nH]c1=O)C(=O)c1ccccc1 (stereo not given)	-9.0	-20.0	6.8	-1.4	-4.3	1.6	6.3	-0.8
Cc1cccc(NC(=O)c2ccc(S(=O)(=O)N3CCN(C)CC3)cc2)c1C	0.5	7.6	u	2.4	-21.8	0.5	-0.7	-3.6
(cont.)
SMILES	Beta cell apopt	UCH37 DUB inh	RanGTP-Impb inh	B2AR ag	T cruzi inh	Bfl-1 A1 inh	LANA-H2A inh	Calb FLC
O=c1c2cc(-c3ccccc3)sc2ncn1-n1cccc1	-0.6	1.8	2.8	-19.0	-10.0	-2.4	-7.3	8.6
CCCC(=O)Nc1sc2c(c1C#N)CCCC2	x	0.4	-1.0	-18.4	8.3	0.0	-3.4	36.1
Cc1cccc(OCC(=O)Nc2nc(-c3ccncc3)cs2)c1	-2.4	0.3	x	3.1	x	-0.5	11.2	x
Cc1c(CCO)c(=O)n(C)n1C(=O)c1ccc(F)cc1	3.4	1.1	0.3	-7.1	6.9	0.2	3.8	3.3
CCOC(=O)CC(=O)CSc1nc2c(sc(=S)n2-c2ccc(OCC)cc2)c(=O)[nH]1	-12.7	4.9	-2.8	7.8	22.7	0.3	-3.5	-5.8
CCCc1[nH]nc2c1C(c1ccc(OC)c(Cn3nc(C)c(Br)c3C)c1)C(C#N)=C(N)O2 (stereo not given)	-14.3	-1.7	-1.8	3.0	-8.7	-0.1	6.2	16.0
CCC(=O)N1CCc2cc(-c3csc(NC(=O)c4ccco4)n3)ccc21	-2.1	-40.5	5.7	2.7	1.8	1.4	-0.1	3.8
Nc1cc(S(=O)(=O)Nc2cc(Cl)ccc2Cl)ccc1N1CCCC1	4.9	3.4	-2.1	-1.5	-4.3	0.7	1.6	-1.4
COc1ccc(/C=C/C(=O)OCC(=O)Nc2cccc(Oc3ccccc3)c2)c(OC)c1	x	2.4	0.8	-10.0	-8.1	0.9	-6.9	10.7
O=C(O)CCN1C(=O)/C(=C2\C(=O)N(Cc3ccc(F)cc3)c3ccccc32)SC1=S	-13.6	-0.5	0.3	5.3	3.5	-0.3	-2.0	0.4
O=C(CSc1nnc(COc2ccccc2)o1)N1CCOCC1	-2.6	0.0	-0.9	-0.8	0.6	-0.9	2.3	-1.4
COC(=O)CCS(=O)(=O)c1ccc(NC(C)=O)cc1	-6.3	2.8	7.2	1.2	0.8	0.5	1.9	-5.3
O=C(NC1CCCC1)c1cc(-c2ccc(F)cc2)on1	16.6	3.9	-1.2	6.0	11.6	-1.1	-1.2	14.6
COc1ccc(NC(=O)CC(NCCc2ccccc2)C(=O)O)c(OC)c1 (stereo not given)	3.1	1.3	2.2	-1.1	-17.7	1.5	2.1	-3.9
NCCNc1ccc(C(=O)N2c3ccccc3Sc3ccccc32)cc1[N+](=O)[O-]	23.6	5.5	1.0	8.0	-1.4	u	0.1	4.3
COc1cc(O)c(C(CC(=O)N2CCCCC2)c2cc(OC)c(OC)c(OC)c2)c(OC)c1 (stereo not given)	0.7	0.7	-4.1	-0.3	-14.3	-0.4	-3.4	-9.3
CCC1CCCCN1Cc1nc2c(c(=O)n(C)c(=O)n2C)n1Cc1cccc2ccccc12 (stereo not given)	-5.6	6.8	4.1	x	10.0	-0.3	2.8	-2.7
